Screening data: PubChem, National Center for Advancing Translational Sciences (NCATS)
SARS PLpro yeast = blocks SARS-CoV papain-like protease in a yeast assay; S. cerevisiae expressing SARS-CoV PLpro, growth rescue; control for the full effect not named in the record; Potency, µM (series often up to 32.9 µM), for inactives: top-dose activity, positive = growth rescue; actives 0.19% (n = 330,000); AID 485353; further: 0% is about no effect; nearly all actives have a fitted effect of over 55% in size; growth read by luminescence after 48 h
MARV entry inh = inhibitors of Marburg virus binding or cell entry | Marburg virus pseudotyped entry inhibition, cell reporter; control for the full effect not named in the record; about a third of the inactives were read at about 46 µM | Potency, µM (top dose mostly 37.8 µM), for the others: at the highest dose activity change, negative = inhibition, most hits filed as inhibitors | actives 1.8% (n = 300,000) | AID 540276; active = well fitted inhibition curve with a large enough effect; inconclusive = small, poorly fitted or top-dose-only effect, or effect the other way; inactive = flat fitted curve, though single readings scatter; tested in HEK293 cells; about a fifth of its hits are not listed in these tables; further: on the % scale 0 is the no-effect control and ±100 the full control effect; luciferase read-out
Cruzain inh noDet = inhibitors of Trypanosoma cruzi cruzain without detergent; P25779; purified cruzain, Z-FR-AMC fluorescence, no detergent; Potency, µM, for inactives: max response, negative = inhibition, actives largely listed as inhibitors; actives 2.3% (n = 200,000); AID 1476; active means well fitted curve in the direction sought with a large enough effect; inconclusive means small, poorly fitted or top-dose-only effect, or another doubt; inactive means no such curve, though single readings can be large; an effect the other way counts as inactive or inconclusive;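 further: plate controls were enzyme without inhibitor for no effect and buffer without enzyme for full effect; nearly all actives have a fitted effect of over 40% in size; top concentration of the series not given in the record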
Target sequence (P25779 123-467 limits assumed): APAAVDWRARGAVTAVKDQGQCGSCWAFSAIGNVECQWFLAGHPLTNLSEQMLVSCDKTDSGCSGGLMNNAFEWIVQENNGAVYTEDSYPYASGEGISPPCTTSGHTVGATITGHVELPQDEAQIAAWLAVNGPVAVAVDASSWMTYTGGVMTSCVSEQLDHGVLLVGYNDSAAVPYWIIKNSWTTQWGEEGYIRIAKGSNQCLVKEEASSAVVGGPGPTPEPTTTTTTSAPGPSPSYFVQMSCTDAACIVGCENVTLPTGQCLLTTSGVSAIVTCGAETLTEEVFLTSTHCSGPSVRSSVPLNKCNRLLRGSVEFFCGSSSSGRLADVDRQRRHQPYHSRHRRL
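Purified cruzain at 1.5 nM, pre-incubated 15 min with compound at room temperature in 100 mM sodium acetate pH 5.5, 5 mM DTT, 0.00005% Triton X-100. Reaction started with 2 uM Z-FR-AMC; AMC fluorescence increase over 60 s gives rate.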
StopGo reporter = lowers the luciferase signal of an FMDV 2A StopGo reporter; actives 1.2% (n = 410,000); human cells with a luciferase reporter of 2A StopGo recoding; control for the full effect not named in the record; Potency, µM (titrated, usually from 57.9 µM), for inactives: at the highest dose signal change, negative = less light; active = well fitted falling curve with a large enough effect; inconclusive = small, poorly fitted or top-dose-only effect; inactive = no such curve, though single readings can be large or run the other way; tested in HEK293T cells; further: on the % scale 0 is the no-effect control and ±100 the full control effect; nearly all actives have a fitted effect of over 45% in size; luciferase light after 4 h
RE007 growth inh = less growth of the S. pombe RE007 Vpr strain; S. pombe RE007 Vpr strain, BacTiter-Glo ATP luminescence, 24 h; control for the full effect not named in the record; Potency, µM (doses to about 92.2 µM), without a hit: top-dose activity change, negative = less growth; actives 0.21% (n = 360,000); active = well fitted falling curve with a large enough effect; inconclusive = small, poorly fitted or top-dose-only effect; inactive = no such curve, though single readings can be large or run the other way;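 further: on the % scale 0 is the no-effect control and ±100 the full control effect; nearly all actives have a fitted effect of over 50% in size; the assay follows cell death caused by Vpr and the record does not say whether a fall means rescue or toxicity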
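Fission yeast RE007 carrying one integrated HIV-1 vpr copy, seeded at OD 0.01 in PMG+AL medium with 23 nL pinned compound. Grown 24 h at 30 degrees; viability read by BacTiter-Glo luminescence after 5 min.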
NS1 function inh = blocks influenza NS1 protein function; S. cerevisiae slowed by influenza A NS1, growth recovery by OD600; Potency, µM (doses to about 46.1 µM), for inactives: at the top dose activity, positive = more growth; actives 0.4% (n = 270,000); further: actives are rising curves; nearly all actives have a fitted effect of over 50% in size
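Recovery from NS1-induced slow growth read by OD600 in budding yeast switched to galactose assay medium (pH 6.0, -URA) at 1:100 dilution. Compound 23 nl per well; the matching strain lacking NS1 serves as control.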
Lassa entry inh = blocks Lassa virus binding to or entry into cells; Potency, µM (doses to about 37.9 µM), for inactives: at the highest dose activity change, negative = inhibition, usual class: inhibitors; AID 540256; Lassa virus pseudotype entry inhibition, cell reporter; control for the full effect not named in the record; actives 1.2% (n = 300,000); active means well fitted inhibition curve with a large enough effect; inconclusive means small, poorly fitted or top-dose-only effect, or effect the other way; inactive means flat fitted curve, though single readings scatter; tested in HEK293 cells; further: on the % scale 0 is the no-effect control and ±100 the full control effect; nearly all actives have a fitted effect of over 50% in size; luciferase read-out
Cruzain Triton = cruzain (T. cruzi) inhibition with detergent. purified cruzain, Z-FR-AMC fluorescence, 0.01% Triton. actives 0.43% (n = 200,000). P25779. Potency, µM, for the others: max response, negative = inhibition, hits mostly inhibitors; active means well fitted curve in the direction sought with a large enough effect; inconclusive means small, poorly fitted or top-dose-only effect, or another doubt; inactive means no such curve, though single readings can be large; an effect the other way counts as inactive or inconclusive;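 further: plate controls were neutral wells for no effect and buffer without enzyme for full effect; nearly all actives have a fitted effect of over 40% in size; top concentration of the series not given in the record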
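Detergent-containing run (0.01% Triton X-100) in acetate buffer pH 5.5 with 5 mM DTT: enzyme at 1.5 nM final, 15 min compound preincubation at room temperature, then 2 uM Z-FR-AMC substrate. Activity taken as 60 s fluorescence increase at 360/450 nm.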
* = called active by the depositor; ? = inconclusive; nt = no result given; & = joins results of further samples; [ ] = remark or other dose. Unless noted, the call rests on the fitted dose curve; in most records, active means well fitted rising curve with a large enough effect; inconclusive means small, poorly fitted or top-dose-only effect; inactive means no such curve, though single readings can be large or run the other way. Potency means the concentration at half of the fitted maximal effect.

Value order: SARS PLpro yeast	MARV entry inh	Cruzain inh noDet	StopGo reporter	RE007 growth inh	NS1 function inh	Lassa entry inh	Cruzain Triton
Nc1c(Cl)ncnc1N1CCCC1
  0%	-14%[46.1 µM]	nt	-3%	14%	-1%	9%[46.1 µM]	nt
COc1cccc(CCNC(=O)CCc2nnc(Cc3cc(OC)ccc3OC)o2)c1
  1%	nt	nt	42%[activator]	3%	-15%	nt	nt
O=C(c1ccc(Cl)cc1[N+](=O)[O-])N1CCN(c2ccccn2)CC1
  0%	nt	nt	-10%	5%	-1%	nt	nt
COc1ccc(NC(=O)c2nc[nH]c2C(=O)N2CCN(c3ccccc3)CC2)cc1
  0%	nt	nt	-14%	-1%	-1%	nt	nt
Cc1nc2n(COCCO)cnn2c(=O)c1Br
  2%	1%	nt	-22%	6%	nt	10%	nt
CCC(=O)c1cc2c(cc1NC(=O)c1ccc(C)cc1)OCCO2
  -1%	20%	1%	43%[activator]	-6%	2%	-4%	-3.7%
NNC(=O)c1ccc(COc2ccc3c(c2)CCC3)cc1
  -49%	?	-6%	4%	12%	27%	2%	2.7%
CC(C)(C)c1ccc(/C=C/C(=O)NC2=NCCS2)cc1
  -15%	-27%	?	-22%	-16%	-16%	14µM*	4.0%
Cc1noc(C)c1COc1cccc(C(=O)Nc2ccc(Br)cc2F)c1
  -9%	?	nt	-26%	-8%	nt	?	nt
OCCC1CN(Cc2nc(-c3ccccc3)cs2)CCN1C1CCCC1 (stereo not given)
  -1%	nt	nt	0%	-11%	-1%	nt	nt
COCCN(C(=O)CCc1ccccc1OC)c1nnc(-c2cccnc2)s1
  -2%	nt	nt	?	3%	-5%	nt	nt
Cn1c(=O)c2c(nc(CN3CCOCC3)n2CC(O)CO)n(C)c1=O (stereo not given)
  2%	?	-15%	22%	8%	3%	4%	7.5%
CCCCSCc1nc2ccccn2c1Br
  12%	5%[46.1 µM]	nt	5%	-23%	nt	-4%[46.1 µM]	nt
O=C(O)/C=C/C(=O)Nc1ccccc1C(=O)OCC(=O)c1ccc2c(c1)OCCO2
  -2%	-6%[46.1 µM]	nt	?	16%	nt	1%	nt
Cc1nn(Cc2ccccc2)c(C)c1NC(=O)CCCn1nc(C)c([N+](=O)[O-])c1C
  1%	1%	-10%	-20%	24%	-15%	?	-3.3%
O=C(Cn1nnc(-c2ccc(Cl)cc2)n1)NCCC1=CCCCC1
  5%	?	20µM*	16%	4%	-2%	8%	10%
O=C(Nc1ccn(Cc2ccccc2F)n1)c1ccc(COc2ccccc2Cl)cc1
  -6%	?	-25%	?	-16%	8%	?	-2.2%
Cc1cc(-c2csc(N)n2)c(C)n1Cc1ccccc1
  0%	-3%[46.1 µM]	nt	10%	5%	nt	-5%	nt
COc1cccc(Cn2cnc3c2c(=O)n(C)c(=O)n3C)c1
  nt	?	5%	-8%	nt	nt	2%[46.1 µM]	2.1%
COc1ccc(/C=C/C(=O)ONC2=NCCCCC2)cc1OC
  -4%	?	nt	-2%	-20%	-5%	-13%	nt
Cc1ccc(N/N=C(\Cc2nc3ccccc3[nH]2)c2ccccc2)cc1
  19%	?	25µM*	27%	-22%	21%	?	-3.0%
COc1ccc(OC)c(-n2c(C)ccc2-c2ccc(S(C)(=O)=O)cc2)c1
  3%	-13%	?	-9%	-9%	1%	0%	-3.7%
Cc1ccc(OCCCCCCN2CCNCC2)cc1
  nt	14µM*	nt	5%	-14%	nt	5%	nt
Cc1ccc2c(c1)S(=O)(=O)N(C)C(c1ccccc1)=C2
  nt	-8%	nt	-12%	6%	nt	-14%	nt
CC(C)c1nc(NCCO)c(C#N)c2c1CCCC2
  -3%	-27%[46.1 µM]	nt	?	25%	-13%	3%	nt
COc1ccc(NC(=O)CN2CCC(NC(=O)c3ccco3)CC2)c([N+](=O)[O-])c1
  1%	-4%	nt	-11%	-23%	2%	-19%	nt
CC1=C(C)C(=O)N(CCC(=O)O)C1=O
  1%	?	-2%	-25%	-3%	6%	-14%	2.2%
CCOC(=O)C1=C(C)N=C2SCCC(=O)N2[C@@H]1c1cccs1
  -1%	-20%	nt	-22%	1%	-2%	-12%	nt
Cc1ccc(CCNC(=O)c2nc(CS(=O)(=O)c3ccc(Cl)cc3)no2)cc1
  -3%	-7%[46.1 µM]	nt	-11%	-8%	-9%	-4%[46.1 µM]	nt
O=S(=O)(Nc1nnc(C(F)(F)F)s1)c1ccc(Cl)cc1
  1%	nt	nt	17%	15%	-3%	nt	nt
CC(C)c1ccc(CCNC(=O)c2cccc(S(=O)(=O)N3CCN(C)CC3)c2)cc1
  12%	?	nt	?	-4%	14%	?	nt
COc1ccc(S(=O)(=O)NC(C(C)C)C(C)C)cc1OC
  11%	21%	-1%	20%	-18%	4%	6%	-1.7%
CS(=O)(=O)c1ccc2nc(NC(=O)CC3CCCC3)sc2c1
  -1%	7%	2%	nt	1%	4%	-21%	-5.2%
CC(C)NC(=S)N1CCC(Cc2ccccc2)CC1
  4%	-2%[46.1 µM]	nt	-16%	4%	nt	14%[46.1 µM]	nt
COc1cc(C(=O)NCCCNc2nc3cc(C)c(C)cc3cc2C#N)cc(OC)c1OC
  -3%	?	nt	-27%	0%	nt	?	nt
CCOC(=O)c1cnc2c(C)c(-c3ccccc3)[nH]n2c1=O
  2%	12%	15%	16%	0%	2%	-13%	2.3%
CCOC(=O)c1c(C)[nH]c(C)c1S(=O)(=O)N1CCC(C(=O)NCc2cccc(C)c2)CC1
  nt	nt	-4%	3%	nt	nt	-7%[46.1 µM]	-0.5%
CCOC(=O)CN(C(=O)CSc1nnc2c(n1)[nH]c1ccc(OC)cc12)c1ccc(F)cc1
  2%	0%	?	?	23%	-21%	?	-8.1%
CC(=O)OCCc1[nH]c2ccccc2c1C
  -13%	nt	nt	-12%	-22%	4%	nt	nt
O=C(Nc1ccnn1C1CCN(CCCc2ccccc2)CC1)c1cccc(F)c1
  1%	?	nt	-31%	-6%	-1%	7%	nt
c1ccc(-c2cc3c(N4CCOCC4)ncnc3s2)cc1
  -11%	-47%	-4%	?	-7%	-63%	2%	-7.6%
CCCCN(C(=O)COC(=O)CSc1ccc([N+](=O)[O-])cc1)c1c(N)n(CCC)c(=O)[nH]c1=O
  -2%	-3%	nt	-4%	-18%	nt	-1%[46.1 µM]	nt
COc1ccc(Oc2nccc(-c3ccccc3)c2C#N)cc1
  -4%	1%	5%	10%	-13%	-6%	?	1.9%
Cc1ccc(NCC(O)C(O)C(O)CO)cc1C (stereo not given)
  1%	-6%	-3%	3%	0%	-2%	-21%	5.8%
Cc1ccc(S(=O)(=O)N(C)C)cc1NC(=O)C1CCC1
  0%	-2%[46.1 µM]	nt	17%	9%	3%	12%	nt
CCc1cccc(C)c1NC(=S)N(CCN(C)C)C(C)c1cccnc1 (stereo not given)
  -2%	20%[46.1 µM]	nt	-13%	6%	nt	?	nt
Cc1nnc(SCCn2c(N3CCN(C)CC3)nc3c2c(=O)[nH]c(=O)n3C)s1
  1%	15%	7%	-13%	-2%	-11%	6%	-1.1%
CC1CCC(NC(=O)CCS(=O)(=O)c2ccc3c(c2)CC(C)N3C(=O)C2CC2)CC1 (stereo not given)
  13%	nt	nt	-5%	-1%	-3%	nt	nt
N#C/C(=C\c1ccc(OCc2ccc(F)cc2)cc1)C(=O)Nc1cccc(C(=O)O)c1
  1%	nt	nt	45%[activator]	-1%	-46%	nt	nt
CCOc1ccc(NC(=O)N(CCCN2CCOCC2)Cc2cccnc2)cc1
  -3%	nt	-5%	-15%	-6%	8%	nt	0.4%
CCCn1c(SCC(=O)Nc2ccc(C(=O)Nc3ccccc3OC)cc2)n[nH]c1=O
  -1%	7%[46.1 µM]	nt	32µM*	0%	nt	-8%	nt
O=C(Cn1cnc(S(=O)(=O)N2CCCC2)c1)Nc1ccc(OC(F)(F)F)cc1
  0%	nt	0%	-10%&-17%	3%	-7%	17%[46.1 µM]	-1.5%
O=C(Cn1cccc1)NCc1cccs1
  11%	2%	4%	-16%	-4%	4%	10%	2.0%
Cc1ccc(/C=C/c2ccc3cccc(O)c3n2)s1
  -3%	?	nt	21%	-26%	-12%	?	nt
O=C(CN(C(=O)c1csnn1)c1ccc2c(c1)OCCO2)NCc1ccccc1
  1%	12%[46.1 µM]	nt	41%[activator]	7%	-9%	?	nt

Entries of single compounds as entered above. Values in the order: SARS PLpro yeast | MARV entry inh | Cruzain inh noDet | StopGo reporter | RE007 growth inh | NS1 function inh | Lassa entry inh | Cruzain Triton
CCCn1c(SCC(=O)Nc2ccc(C(=O)Nc3ccccc3OC)cc2)n[nH]c1=O as listed: -1% | 7%[46.1 µM] | nt | 32µM* | 0% | nt | -8% | nt
CC(C)(C)c1ccc(/C=C/C(=O)NC2=NCCS2)cc1 as listed: -15% | -27% | ? | -22% | -16% | -16% | 14µM* | 4.0%
Cc1ccc(CCNC(=O)c2nc(CS(=O)(=O)c3ccc(Cl)cc3)no2)cc1 as listed: -3% | -7%[46.1 µM] | nt | -11% | -8% | -9% | -4%[46.1 µM] | nt
OCCC1CN(Cc2nc(-c3ccccc3)cs2)CCN1C1CCCC1 (stereo not given) as listed: -1% | nt | nt | 0% | -11% | -1% | nt | nt
